Screens deposited in PubChem BioAssay by several laboratories.
AF4-AF9 inh: MLL-AF4/AF9 protein interaction inhibition. 350,000 tested, 0.47% active. P42568. AID 651704. inhibition, % at 10 µM. AlphaScreen, biotin-AF4 peptide binding to FLAG-AF9;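 active = every replicate reaching a set inhibition limit, whatever the replicate mean, cut at about 25% in these data; inconclusive = mean inhibition reaches that limit but some replicates miss it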;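 note: 0% = plate neutral control median and 100% = total signal loss; the record names both 10 and 1 µM as test concentration; the first replicate is given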
Target sequence (P42568 whole entry, looked up): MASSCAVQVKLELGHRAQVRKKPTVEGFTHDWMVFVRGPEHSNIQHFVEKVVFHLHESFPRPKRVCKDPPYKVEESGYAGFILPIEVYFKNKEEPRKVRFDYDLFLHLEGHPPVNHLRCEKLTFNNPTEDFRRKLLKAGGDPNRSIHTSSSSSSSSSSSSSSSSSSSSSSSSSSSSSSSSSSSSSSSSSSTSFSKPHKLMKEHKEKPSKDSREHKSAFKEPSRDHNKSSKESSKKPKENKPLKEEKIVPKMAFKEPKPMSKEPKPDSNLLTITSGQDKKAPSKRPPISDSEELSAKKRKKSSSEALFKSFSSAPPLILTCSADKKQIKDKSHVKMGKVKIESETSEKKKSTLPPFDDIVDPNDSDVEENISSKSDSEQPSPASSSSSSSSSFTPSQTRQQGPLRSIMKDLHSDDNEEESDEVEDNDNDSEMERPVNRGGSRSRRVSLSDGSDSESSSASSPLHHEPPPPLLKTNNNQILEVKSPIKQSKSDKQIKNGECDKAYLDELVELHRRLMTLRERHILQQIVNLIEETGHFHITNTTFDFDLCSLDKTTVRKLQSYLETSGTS
Vif A3G: inhibitors of Vif binding to APOBEC3G peptide, primary screen, biochemical, TR-FRET, GST-Vif 1-94, biotin-A3G peptide, dose response retest (AID 1117319); TR-FRET GST-Vif / biotin-A3G peptide binding; higher % means a stronger effect; test concentration not given here; strong numbers were not always called active; inhibition, %, or IC50 in µM where a hit was titrated; 260,000 tested, 0.57% active;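 active = above the screen mean plus three standard deviations and confirmed in dose response; inconclusive = results disagree or hit not tested in dose response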;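 note: Vif residues 1-94 fused to GST binding biotinylated APOBEC3G peptide 110-148; 0% = full assay without inhibitor and 100% = GST in place of GST-Vif; retest series ran down from 100 µM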
Bfl-1 A1 inh: inhibitors of the anti-apoptotic protein A1, read as caspase activation; 330,000 tested, 0.066% active; caspase activation, % (test concentration not listed); MEF A1-2A-BIM cells, Caspase-Glo 3/7 luminescence, 3 h; percent of clofoctol response, vehicle zero;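 active = over half of replicate activation scores above 10%, or exactly half above 10 with the replicate mean above 10; inconclusive = replicate mean below 10 yet half the replicates above 10; inactive = over half of replicates below 10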;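 note: wells of about 30 µL received 50 nL stock; many hits fall short of the cut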
Beta cell apopt: blocks beta cell apoptosis | INS-1E cytokine-induced death, ATP luminescence, 48 h; percent of positive-control rescue, neutral wells zero | AID 435005 | 300,000 tested, 0.8% active | protection from apoptosis, % (concentration not given with the values);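 active = all replicates at 75% or more, or half of them and the mean; inconclusive = half reach 75% but not the mean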;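 note: 0% = cytokine-treated negative control wells and 100% = positive control rescue; higher means more ATP so stronger rescue from cytokine killing; wells of about 40 µL received 100 nL stock; the first replicate is given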
Calb FLC: C. albicans growth modulation with fluconazole | growth inhibition, % (no concentration beside the values) | 300,000 tested, 0.57% active | C. albicans CaCi-2 (fluconazole-resistant clinical isolate) + fluconazole, Alamar Blue growth, 48 h;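 active = most replicates above 75%; inconclusive = exactly half above 75%; inactive = most below 75%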;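 note: all wells also contain fluconazole at 8 µg/ml as a sub-toxic cotreatment; 0% = median of DMSO wells and 100% = median of geldanamycin control wells; wells of about 8 µL received 7.5 nL stock; the first replicate is given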
RanGTP-Impb inh: disruptors of Ran-importin-beta complex formation – biochemical, FRET, CFP-Ran, YFP-importin-beta, homogeneous, primary screen | AID 2216 | cell-free CFP-Ran/YFP-importin-beta FRET ratio | 300,000 tested, 1.1% active | inhibition, % (test concentration not listed);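 active = most replicates above 15%; inconclusive = exactly half above 15%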;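 note: 0% = DMSO wells and 100% = Ran loaded with GDP instead of GTP; wells of about 40 µL received 100 nL stock; the first replicate is given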
T cruzi inh: T. cruzi replication inhibition | T. cruzi beta-gal in NIH3T3, luminescence, 90 h | AID 1885 | inhibition, % (test concentration not listed) | 300,000 tested, 1.4% active;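 active = mean inhibition across valid replicates above about 55%, limit read from the data; inconclusive = mean below that limit but half or more replicates reach it; inactive = mean below it, under half of replicates reach it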;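 note: signal also drops with host cell toxicity which is not excluded here; 0% = plate median of DMSO wells and 100% = zero luminescence signal; higher percent means less beta-gal luminescence so fewer parasites; stock transfer was 50 nL into about 50 µL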
LANA-H2B inh: blocks KSHV LANA binding to histone H2A/H2B; cell-free LANA-H2A/H2B peptide, fluorescence polarization; inhibition, % (no concentration beside the values); 320,000 tested, 0.6% active; in the data active = inhibition mostly above about 10%, no sharp cut-off; inactive = mostly below about 6.7%;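 note: stock transfer was 7.5 nL into about 10 µL; 0% = median of vehicle wells and 100% = median of positive control wells; one replicate is shown; the record names a cut of 25% in any replicate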
The depositor's hits bear a star; ? = inconclusive; nt = not tested or not shown; & = joins results of further samples.

SMILES	AF4-AF9 inh	Vif A3G	Bfl-1 A1 inh	Beta cell apopt	Calb FLC	RanGTP-Impb inh	T cruzi inh	LANA-H2B inh
O=C(Nc1cccnc1)c1cccnc1Cl	nt	3%	0.0	-4	-3	-3.9	-2	0.3
O=C(O)C(Cc1c[nH]c2ccccc12)N1C(=O)c2ccccc2C1=O (stereo not drawn)	-21	3%&3%	0.5	-10	13	0.9	-3	2.4
Cc1cc(C)n2nnnc2n1	0.3	-3%	-0.6	3	-14	1.2	-9	-1.5
Cc1ccc(-n2nc3ccc(NC(=O)/C=C/c4ccco4)cc3n2)cc1	-7.2	?	-0.9	4	-5	0.4	-43	-2.1
O=C(CCc1ccccc1)c1nnc(-c2ccccc2)o1	-0.3	1%	-0.5	-1	-7	2.4	-10	-0.5
O=C(CSCc1ccc(Br)cc1)N1CCOCC1	nt	5%	-0.1	-6	3	-1.6	-7	0.4
Cc1nnsc1C(=O)NNS(=O)(=O)c1ccccc1	nt	-2%	0.3	6	-1	0.1	-3	4.0
COc1ccc(C(C)(C)C)cc1NC(=O)C1=CC=CN2CCS(=O)(=O)N=C12	3.1	nt	0.8	-5	nt	nt	nt	5.2
CCN(CC)S(=O)(=O)c1cc(NC(=O)C(C)Nc2ccccc2N2CCOCC2)ccc1C (stereo not drawn)	8.9	nt	0.1	4	7	0.1	39	6.1
CCc1[nH]nc(C(=O)NC2CCCc3c2cnn3-c2cc(C)cc(C)c2)c1C (stereo not drawn)	-2.1	3%	-0.5	-7	9	1.6	9	1.2
CCc1c(C(=O)N/N=C/c2ccco2)nnn1-c1nonc1N	0.0	nt	-0.2	-8	9	-1.4	4	-1.7
COc1ccc(OCCC(=O)OCC(=O)c2ccc[nH]2)cc1	-1.0	26%	-0.5	-2	0	-0.7	-2	9.9
COc1ccc(CN(C)CC2CCCN(CCc3ccc(F)cc3)C2)c(OC)c1OC (stereo not drawn)	3.7	nt	1.2	nt	-7	-0.8	48	-2.3
Cn1c(=O)c2c(nc(Oc3ccc(-c4ccccc4)cc3)n2C)n(C)c1=O	1.6	1%	-0.6	-3	3	3.6	-20	-4.3
COCCCN1C(=O)C(=O)/C(=C(/O)c2ccccc2)C1c1ccc(N(C)C)cc1 (stereo not drawn)	nt	?	-0.2	-5	11	5.3	-7	2.8
CN(C(=O)COC(=O)c1ccc2ccccc2n1)C1CCS(=O)(=O)C1 (stereo not drawn)	-1.9	-3%	-0.4	0	2	4.8	-2	0.4
CCc1ccc(N2CN(Cc3cccnc3)CNC2=S)cc1	-0.1	-6%	0.9	-12	-1	0.6	26	0.8
Cc1cccc(NC(=O)C(Cc2ccccc2)c2nn[nH]n2)c1C (stereo not drawn)	-0.8	-3%	1.4	0	2	-2.0	-13	-3.1
COc1ccc2cc(C(=O)C3CCCN(C(=O)Cc4c(C)noc4C)C3)ccc2c1 (stereo not drawn)	-0.7	5%	-3.1	-2	-5	4.2	12	-1.1
COc1ccccc1NC(=O)c1ccccc1S(=O)(=O)c1ccccc1[N+](=O)[O-]	4.5	-6%	0.6	-1	1	-3.3	-4	1.2
COC(=O)Cc1c(C)c2ccc(OCC(=O)NC3CCS(=O)(=O)C3)cc2oc1=O (stereo not drawn)	-0.7	2%	-0.2	1	3	5.2	-24	-1.1
CC1CCCCC1NC(=O)/C=C/c1nc2ccccc2s1 (stereo not drawn)	0.4	nt	-0.3	1	28	-0.1	3	-1.3
COc1ccc(C(=O)N2CCOC2CNC(=O)C(=O)NCc2ccc(Cl)cc2)cc1 (stereo not drawn)	-0.4	-5%	0.3	4	-15	-2.8	2	6.2
O=C(Nc1cccc(F)c1)C1CCCN(C(=O)c2ccc(Cl)cc2)C1 (stereo not drawn)	1.2	nt	1.5	1	nt	nt	nt	0.1
O=C1CN(C(=O)COC(=O)c2ccc(Br)o2)c2ccccc2N1	-1.1	nt	-0.9	0	nt	nt	nt	0.2
CCOC(=O)c1cnc2c(C)cccc2c1NCCCN1CCOCC1	1.8	nt	-1.1	nt	-1	-4.8	-7	1.4
O=C(Nc1cccn2ncnc12)c1ccccc1	nt	1%	-1.5	-6	-8	-1.7	-15	0.8
CC(C)(C)c1cc(CN2CCCCC2)cc(C(C)(C)C)c1O	nt	0%	1.1	-1	-13	1.3	11	-1.2
Cc1c(C)[n+](=O)c(-c2ccc(Br)cc2)c(C)n1[O-]	-1.0	nt	0.1	-7	-2	1.7	1	0.1
Cc1nn(C(=O)c2cccnc2)c(C)c1Sc1ccc(Br)cc1	nt	9%	-0.2	-16	0	-0.6	-12	7.4
N#CCCn1c(SCC(=O)NCc2ccco2)nc2ccccc21	nt	4%	-0.6	-8	11	2.1	-2	nt
CCOC(=O)c1[nH]c(=O)[nH]c1CN(Cc1ccco1)Cc1[nH]c(=O)[nH]c1C(=O)OCC	-1.0	-8%	0.4	-1	10	8.6	-10	-3.5
Cc1ccc2[nH]c(C(=O)N3CCN(C(c4ccccc4)c4ccccc4)CC3)cc2c1	-2.7	2%	-0.3	20	21	1.0	11	0.6
CC(NC(=O)c1ccco1)C(=O)Nc1nc(-c2ccccn2)cs1 (stereo not drawn)	nt	3%	-0.8	-7	-15	0.7	-2	0.0
CC1CN(C(=O)c2ccc(Br)c(S(=O)(=O)N3CCOCC3)c2)CC(C)O1 (stereo not drawn)	-5.6	1%	1.6	-4	nt	nt	nt	-2.3
O=C(NCc1ccco1)c1csc2c1CCCC2	1.8	nt	0.3	-5	-12	?	-5	2.1
CCCC(=O)Nc1ccc(C(=O)COC(=O)C2CC2)cc1	-2.4	nt	0.9	-1	nt	nt	nt	2.6
C[C@H]1O[C@@H](O[C@H]2CC[C@@]3(C)C(CC[C@]4(C)C3C=C[C@]35OC[C@@]6(CCC(C)(C)C[C@H]63)[C@@H](O)C[C@]54C)[C@]2(C)CO)[C@H](O)[C@@H](O[C@@H]2O[C@H](CO)[C@@H](O)[C@H](O)[C@H]2O)[C@H]1O (stereo partly drawn)	1.8	nt	0.2	2	nt	nt	nt	0.6
COc1ccc(CN2CCCCC2C)c(C)c1C (stereo not drawn)	nt	0%	0.7	-6	1	2.8	nt	-4.4
O=C(COC(=O)c1cccc(NC(=O)c2ccco2)c1)c1ccc(Br)cc1	nt	-5%	-7.4	7	11	-2.5	5	2.2
COCC(C)N1CCC(Oc2cccc(C(=O)NCCc3ccccc3)c2)CC1 (stereo not drawn)	-0.2	nt	2.7	-2	1	5.9	47	-2.4
O=S(=O)(NCCc1csc(-c2ccc(C(F)(F)F)cc2)n1)c1ccc2c(c1)OCCO2	-0.6	-3%	0.3	11	1	-3.6	-13	0.6
CCOCCCN(C(=O)c1ccco1)C(C(=O)NC1CCCC1)c1cccc(OC)c1OC (stereo not drawn)	nt	2%	nt	nt	-4	-5.2	5	nt
C/C(=N/NC(=O)c1cc(-c2cccc([N+](=O)[O-])c2)n[nH]1)c1ccc(Cl)cc1	nt	nt	-0.1	-1	14	1.0	4	nt
NC(N)=N/N=C/c1cc([N+](=O)[O-])ccc1O	nt	nt	0.3	-7	-5	-1.2	3	7.0
Cn1cnnc1SCC(=O)c1c[nH]c2ccccc12	?	?	-2.6	-3	6	31*	-15	5.6
Cc1ccc(C2=NN(CCC(=O)NCCC(C)C)C(=O)CC2)cc1	nt	nt	-0.7	-1	0	-4.5	-25	3.6
Cc1ccc(S(=O)(=O)CC(C)N2CCN(C3CCCCC3)CC2)cc1 (stereo not drawn)	nt	14%	0.1	-6	-17	-1.6	4	-0.9
CCOC(=O)c1cc2c(=O)n3cccc(C)c3nc2n(CC2CCCO2)c1=NC(C)=O (stereo not drawn)	-1.6	2%	-2.1	1	?	22*	12	2.9
COc1ccccc1CN1CC(C(=O)NCc2cnn(C)c2)CCC1=O (stereo not drawn)	-1.1	nt	0.5	-3	4	3.7	-14	-4.0
Cc1ccc2nc(SCc3nc4cc(Cl)ccc4c(=O)[nH]3)[nH]c2c1	-2.8	1%	0.1	0	4	0.4	-21	-4.3
COc1ccc(-c2nn3c(-c4ccc(F)cc4)nnc3s2)cc1	nt	?	0.4	0	26	?	25	2.7
CCC(C)(C)NC(=O)C(c1cccc(OC)c1OC)N(Cc1ccc(OC)cc1)C(=O)CCC(=O)Nc1cc(C)on1 (stereo not drawn)	1.7	nt	0.1	5	7	20	24	0.3
CCCCc1ccc(NC(=O)CSc2nc(=O)n(CCN(CC)CC)c3c2CCC3)cc1	-34	-6%	0.0	8	3	-0.5	20	11
COc1cc(NC(=O)c2csc(N)n2)cc(C(=O)Nc2cccc(C(F)(F)F)c2)c1	-0.6&1.3	-7%	1.3	19	12	-1.0	1	-5.6
COc1cccc(N/C(C)=C/C(=O)c2ccc(Br)cc2)c1	nt	-7%	0.5	4	2	?	8	-0.8
CCOc1cc(C2NC(=O)NC(c3ccccc3)=C2C(C)=O)ccc1OCC(N)=O (stereo not drawn)	nt	1%	-1.0	-4	-5	-2.7	-8	2.2
O=C(N/N=C/c1ccccc1)c1ccc(NC(=O)c2ccc(F)cc2)cc1	-2.4	nt	-1.0	2	-9	-3.1	-14	3.2
CCCCCn1c(SCCc2ccccc2)nc2c1c(=O)[nH]c(=O)n2C	nt	0%	0.1	nt	18	-1.1	22	1.0
O=C(COC(=O)c1c(Cl)cccc1Cl)NCc1cccs1	1.7	-7%	0.2	-3	nt	nt	nt	3.3

Next section:
SMILES	AF4-AF9 inh	Vif A3G	Bfl-1 A1 inh	Beta cell apopt	Calb FLC	RanGTP-Impb inh	T cruzi inh	LANA-H2B inh
CN(C)C=NC(=O)c1cc(C(=O)c2ccc(C(C)(C)C)cc2)c[nH]1	-0.4	nt	1.6	0	13	27*	4	-2.7
COc1ccc(S(=O)(=O)N2CCOCC2)cc1NC(=O)CO/N=C/c1ccccc1OC(F)F	nt	?	0.3	0	2	2.8	20	1.2
COC1c2ccccc2C(=O)N1Cc1ccc(F)cc1 (stereo not drawn)	1.7	nt	0.6	-13	3	0.0	-4	-0.1
O=[N+]([O-])c1ccc(OCc2cn([C@@H](CO)c3ccccc3)nn2)c(Br)c1	-6.4	nt	-1.5	-3	-3	-6.3	8	-3.5
CC(=O)c1sc(Nc2nc3ccc(F)cc3s2)nc1C	nt	-6%	-1.7	40	-4	47*	-26	-1.1
O=C(CSc1nc2ccccc2c(=O)n1Cc1ccc(F)cc1)NCc1cccs1	0.3	-12%	0.7	7	17	?	-25	-3.9
Cc1cnc(C(=O)OCC(=O)Nc2cccc3ccccc23)cn1	-0.1	nt	-0.3	-6	nt	nt	nt	0.4
C=C(C)C(=O)Nc1ccc2c(c1)OCCOCCOCCO2	-25	1.9µM*	-0.5	-3	2	-1.7	-6	4.8

Two successive records from above, for reference:
SMILES	AF4-AF9 inh	Vif A3G	Bfl-1 A1 inh	Beta cell apopt	Calb FLC	RanGTP-Impb inh	T cruzi inh	LANA-H2B inh
Cc1cnc(C(=O)OCC(=O)Nc2cccc3ccccc23)cn1	-0.1	nt	-0.3	-6	nt	nt	nt	0.4
C=C(C)C(=O)Nc1ccc2c(c1)OCCOCCOCCO2	-25	1.9µM*	-0.5	-3	2	-1.7	-6	4.8
